# Assay outcomes deposited in PubChem BioAssay by Fisher Drug Discovery Resource Center.
# NPYLR7 agonist: agonists of mosquito NPYLR7 receptor, primary screen, cell-based, Aedes aegypti, calcium fluorescence, mosquito biting behavior; HEK293T NPYLR7/Galpha15, GCaMP6s calcium fluorescence; activation, % at 10 µM; 270,000 compounds, 0.15% hits; in the data active means activation above about 40%;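 further: 0% = vehicle and 100% = reference agonist at the receptor; some compounds past the cut are filed as inactive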
# NPYLR7 agonist max-min: recorded beside NPYLR7 agonist, whose call it bears; activation, %; measured here: Max-Min RFU normalised activation; some inactives read as strong as hits;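 span of the calcium signal over five minutes; 0% = vehicle and 100% = native peptide agonist; compound fluorescence can raise it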
# * marks the source's active call; other numbers are inactive results; & = joins results of further samples. These rows are one share of the data; rates above refer to the full screens.
# The line under a structure holds: NPYLR7 agonist max-min, NPYLR7 agonist
S=c1[nH]nc(Cc2cccc3ccccc23)n1N=Cc1ccc2c(c1)OCCO2
    7, 5
C=CCOc1ccc(CN(C)C(=O)c2cc(F)cc3[nH]cnc23)cc1
    5, 12
O=C(COc1ccccc1)NC(NC(=S)Nc1ccccc1C(=O)O)C(Cl)(Cl)Cl (stereo unspecified)
    -24, -19
CN(C)CCNc1cc(C(C)(C)C)nc2c(-c3ccc(Cl)cc3)cnn12
    6, 4
CCc1ccc(CN2CCCC2c2c(C)noc2C)o1 (stereo unspecified)
    8, 4
Cc1nn2c(nnc3c(=O)n(-c4ccc5c(c4)OCO5)ccc32)c1-c1cccc(Cl)c1
    -2, 0
Cn1c(CNC(=O)C2CCC(=O)N(CCc3cccc(F)c3)C2)nc2ccccc21 (stereo unspecified)
    6, 6
CC(=O)NCc1ccc(C(=O)N(c2ccc(Cl)cc2)C(C)C)cc1
    2, 6
CN1CCN(C(CNC(=O)c2cccc3ccccc23)c2ccsc2)CC1 (stereo unspecified)
    -3, 6
Cc1cc(C)n(-c2ccc(C(=O)N3CCc4c(c(C(=O)O)nn4C)C3)cc2)n1
    -11, -4
CCC(O)c1ccc(-c2ccnc3[nH]ccc23)cc1 (stereo unspecified)
    -3, -1
Cc1ccc(O)c(C2=NCCN=C(C(F)(F)C(F)F)C2)c1
    5, 3
Cc1ccc(C)c(N(C(=O)Cn2c(=O)[nH]c3ccccc3c2=O)C(C)C)c1
    -1, -3
COc1ccc(CCNC(=O)c2cccnc2N2CCN(C(=O)c3cc(C)on3)CC2)cc1OC
    -8, -3
O=S(=O)(NCc1ccccc1)Nc1cc2c(cc1-n1ccnc1)OCCO2
    5, 7
C/C=C\COC1CCCN(C(=O)c2cccc(Cl)c2)C1 (stereo unspecified)
    3, -3
O=C(CC1C(=O)NCCN1CC1CCCCC1)NCc1cc(F)ccc1F (stereo unspecified)
    -2, 1
COC(=O)c1ccc(C(=O)Nc2ccc3c(c2)OCCO3)cc1
    -12, -8
CC(C)Cc1cc(CNc2nc(-c3cccnc3)nc3c2CNC3)no1
    7, 17
O=C(CCc1ccc2c(c1)OCO2)N1CCN(S(=O)(=O)c2ccc(Cl)s2)CC1
    6, 4

# Next part; it opens with the 7 that closed the last part.
# The line under a structure holds: NPYLR7 agonist max-min, NPYLR7 agonist
COc1ccc(CCNC(=O)c2cccnc2N2CCN(C(=O)c3cc(C)on3)CC2)cc1OC
    -8, -3
O=S(=O)(NCc1ccccc1)Nc1cc2c(cc1-n1ccnc1)OCCO2
    5, 7
C/C=C\COC1CCCN(C(=O)c2cccc(Cl)c2)C1 (stereo unspecified)
    3, -3
O=C(CC1C(=O)NCCN1CC1CCCCC1)NCc1cc(F)ccc1F (stereo unspecified)
    -2, 1
COC(=O)c1ccc(C(=O)Nc2ccc3c(c2)OCCO3)cc1
    -12, -8
CC(C)Cc1cc(CNc2nc(-c3cccnc3)nc3c2CNC3)no1
    7, 17
O=C(CCc1ccc2c(c1)OCO2)N1CCN(S(=O)(=O)c2ccc(Cl)s2)CC1
    6, 4
Cc1nnsc1CN(C)C(=O)c1cc(-c2cccn2C)n[nH]1
    11, 13
CN(C(=O)COC(=O)CN1C(=O)NC2(CCCC2)C1=O)C1CCCCC1
    6, 8
Cc1nn(-c2ccc([N+](=O)[O-])cc2)c2c1C(=NNc1ccc([N+](=O)[O-])cc1)CC(C)(C)C2
    -8, -5
O=C(Nc1ccc2oc(Cc3ccccc3Cl)nc2c1)c1ccccc1F
    6, -2
CCCC(=O)NC1CCCN(C(=O)c2c(Cl)nc3ccccn23)C1 (stereo unspecified)
    -6, -1
CC1C(=O)N(c2ccc(Cl)cc2Cl)CCN1C(=O)Cc1ccccc1 (stereo unspecified)
    7, 3
CONC(=O)c1cc(-c2ccco2)[nH]n1
    7, 10
CCC(Nc1ccccc1)c1nc(C2CCC2)no1 (stereo unspecified)
    -11, -6
COCCn1c(CN2CCN(C)CC2)nc2c1c(=O)n(C)c(=O)n2C
    7&27, 5&2
Cc1ccc(C2=N/C(=C\N3CCCCC3)C(=O)O2)cc1
    -7, 0
Cn1nc(C2CC2)cc1NC(=O)C1(C)CCN1C(=O)CCc1ccccc1 (stereo unspecified)
    -2, -4
COC(=O)c1cccc(CN2CCN(c3cc(Nc4cccc(C)c4)ncn3)CC2)c1
    1, 2
COC(=O)[C@@H]1C[C@H](NS(=O)(=O)CCc2ccncc2)CN1C
    6, 8
CC=CCN(CC)Cc1nc2cc(Cl)ccc2c(=O)[nH]1
    -4, 1
COc1ccc(CCNC(=O)CSc2ncnc3sc(C)c(C)c23)cc1OC
    -15, -9
CCCCOc1ccc(-c2cc3c(=O)n(CC(=O)NCc4ccccc4)ccn3n2)cc1
    2, 4
CN(Cc1nc2ccc(Cl)cc2[nH]1)Cc1c(C(=O)N2CCCCC2)nc2sccn12
    -15, -10
CCc1ccc(S(=O)(=O)Nc2ccc(-c3ccc4nncn4n3)cc2)s1
    -3, -9
Oc1oc(-c2cccc3ccccc23)nc1C=Nc1ccccc1Cl
    -7, -2
CNc1cncc(-c2cccc(C(=O)N(C)C)c2)n1
    0, 3
O=C(Nc1nnc(SCc2cccc(OC(F)(F)F)c2)s1)c1ccco1
    6, 3
CC(C)(C)OC(=O)N1CC(O)CC1C(=O)N1CCOCC1 (stereo unspecified)
    6, 1
CCNS(=O)(=O)c1ccc(NC(=O)c2ccc(Cn3nc(C)cc3C)o2)cc1
    3, 3
COCC1(C(=O)N2CCCC2c2nc(-c3ccccc3)no2)CCC1 (stereo unspecified)
    0, 2
Cc1ccc(S(=O)(=O)C(C#N)c2nc3ccccc3nc2NC2CC2)cc1 (stereo unspecified)
    -4, 0
COc1cc(C)c(-c2nc3ccccc3c(=O)n2Cc2ccc(Cl)cc2)cc1C
    6, 6
COCCN(Cc1nc2cc(Cl)ccc2o1)C(=O)C1CCC1
    0, 2
O=C1CC(c2cc(F)cc(F)c2)Cc2nc(N3CCOCC3)ncc21 (stereo unspecified)
    3, -2
CCCCNCC1=C(C(=O)OCC)C(c2cccc([N+](=O)[O-])c2)NC(=O)N1Cc1ccccc1 (stereo unspecified)
    -7, -4
CCOc1cc(S(=O)(=O)NCc2ccco2)ccc1Br
    1, 4
O=C(COc1ccc(Cl)cc1)N1CCCC(OCc2ccccc2Cl)C1 (stereo unspecified)
    0, -8
CCC(C(=O)N1CCN(CC(OCc2ccc(C#N)cc2)c2cccc(N3CCCC3)c2)CC1)c1ccccc1 (stereo unspecified)
    1, 7
COc1cc(Cl)c(NC(=O)CCc2nc(-c3ccsc3)no2)cc1OC
    3, 3
CC1=NN(c2ccccc2)C(=O)/C1=C\C=C\c1ccccc1
    -5, -1
COC(=O)CCC(=O)N1CCCC(C(=O)c2ccc(-c3ccccc3)cc2)C1 (stereo unspecified)
    0, 2
Cc1cc(=O)[nH]c(-n2nc(C)cc2NC(=O)c2ccc(C(F)(F)F)cc2)n1
    0, 3
Cc1cc(NC(=O)c2cc(=O)c3ccccc3o2)n(-c2nc(-c3cccs3)cs2)n1
    -15, -9
CCOC(=O)c1nnc2n(c1=O)CCN2c1ccc(OCC)cc1
    -4, -5
O=S(=O)(Nc1ccn(Cc2ccccn2)n1)c1cc(Cl)cc(Cl)c1
    -1, 3
CCn1ccnc1CN1CCCN(CC2CC2)C(C(C)C)C1 (stereo unspecified)
    -14, -4
Cc1cccc(-n2ncc(C(=O)NC3CCCCC3)c2C)c1
    0, 0
Cc1cc(C(=O)N2CCC(C(=O)Nc3ccc(-n4nc(C)cc4C)cc3)CC2)nc(C)n1
    -5, 0
CN1CCN(C(=O)c2csc(COc3cccc4ccccc34)n2)CC1
    -3, -4
COc1cccc(C=C2C(=O)N(c3ccccc3)C(=S)N(c3ccccc3)C2=O)c1
    10, 8
COC(=O)c1c(NC(=O)COc2ccccc2C(N)=O)sc2c1CCCCC2
    -1, 0
O=C(CN1C(=O)C2C3CC(C(Br)C3Br)C2C1=O)N1CCOCC1 (stereo unspecified)
    3, 11
CCc1nn(-c2ccccc2)c(NC(=O)c2c(F)cccc2OC)c1C
    2, 11
Cc1ccc(S(=O)(=O)Nc2cccc(S(C)(=O)=O)c2)s1
    -2, 0
CCCCN(C(C)=O)c1c(CC)nc2ccc(C(=O)N(C)CCN(C)C)cn12
    -7, 3
CCCc1nc(C(=O)N2C[C@H]3CC=CC[C@H]3C2)cs1
    0, 3
O=c1cccnn1CCCNS(=O)(=O)c1ccc(C(F)(F)F)cc1
    -11, -8
Cc1ccc(C(=O)O)c(Sc2ccccc2)n1
    3, 19
CCN(Cc1noc(C)n1)C(=O)c1cnn(-c2ccccc2OC)c1
    0, 0
O=S(=O)(c1ccc2ccccc2c1)N1CCOC2(CNCCOC2)C1 (stereo unspecified)
    11, 12
COCCNc1ncnc2c1ncn2[C@H]1CN(Cc2ccccc2)C[C@@H](COC(C)=O)O1
    13, 14
CCc1cc(N2CCCCC2C)nc(SCc2ccc(C(=O)NCc3ccccn3)o2)n1 (stereo unspecified)
    6, -4
ON=C1/C(=N/O)CC2(C/C1=N\O)OCCO2
    2, 4
O=C1OCCC1NC(c1ccccc1)C1CCC1 (stereo unspecified)
    -7, -1
CCOCCOc1nc(-c2ccc(C(F)(F)F)cc2)n(-c2ccc(NC(=O)c3cccc([N+](=O)[O-])c3)cc2)n1
    1, -4
O=C(CCc1ccccc1)N(Cc1cccnc1)c1nc2cc3c(cc2s1)OCO3
    10, 0

# Other records.
# The line under a structure holds: NPYLR7 agonist max-min, NPYLR7 agonist
CSc1ncc(F)c(=O)n1C
    3, 4
Cc1cccc(COCC2CN(C(=O)c3ccc(Cl)c(F)c3)CCO2)c1 (stereo unspecified)
    2, 3
Cc1c(Cl)cccc1S(=O)(=O)Nc1nn(C(C)(C)C)cc1C#N
    -1, 1
CCOC(=O)c1ccc(OC2CC3CCC(C2)N3C(=O)c2ccc(CSc3nc(C)cs3)cc2)cc1 (stereo unspecified)
    12, 19
c1ccc(-c2nc3sc4c(ncn5ncnc45)c3c3c2CCC3)cc1
    4, 3
CCCN(CCC)C(=O)c1cc(-c2ccccc2F)nc2cc(C(C)(C)C)nn12
    15, 9
N#CC1C(=N)Oc2n[nH]c(-c3ccc(Br)cc3)c2C1c1ccncc1 (stereo unspecified)
    -9, 0
O=C(C1Cc2ccccc2S1)N1CCCc2cc(C(F)(F)F)ccc21 (stereo unspecified)
    -1, 1
COc1ccc(OC)c(-c2nc(CN3CCCCC3c3nccs3)c(C)o2)c1 (stereo unspecified)
    11, 6
O=C1OC(c2ccc(F)cc2)=N/C1=C\C=C/c1ccccc1
    -7, -3
O=C(c1cncn1-c1ccc(F)cc1)N1CCC(N2CCNC2=O)CC1
    -2, 0
Cc1nonc1CC(=O)N1CCc2ccc(NC(=O)c3ccncc3)cc2C1
    4, 4
COCCn1c(CN(Cc2ccccc2)Cc2ccccc2)nc2c1c(=O)[nH]c(=O)n2C
    5, 0
Cc1c(C(=O)NC(C)(C)CO)sc2ncnc(NCCc3ccccn3)c12
    11, 17
CCOC(=O)C1=C(O)/C(=C\c2ccc3c(c2)OCO3)SC1=Nc1ccccc1F
    1, -2
Cc1ccc(C)c(OCc2cc(C(=O)N3CCC(N4CCOCC4)CC3)no2)c1
    -4, -3
O=C(NCc1noc(-c2ccco2)n1)[C@H]1Cc2ccccc2CN1
    23, 27
CCCCOc1ccc(S(=O)(=O)n2nc(C)c(S(=O)(=O)N3CCCCCC3)c2C)cc1
    -2, 1
COCc1cc(N(C)CCc2ccc(OC)c(OC)c2)nc(SCc2ccc(C(=O)NCc3ccncc3)o2)n1
    16, 4
CC(=O)c1ccc(C(=O)N(CCCN(C)C)c2nc3c(F)cc(F)cc3s2)cc1
    3, 3
CCN(CC)c1ccc(/C=C2\SC(=S)N(NC(=O)c3ccccc3)C2=O)cc1
    -3, 5
O=C(CS(=O)(=O)c1ccc2c(c1)S(=O)(=O)N=CN2)N1CCN(c2ccccc2F)CC1
    -21, -11
CCOC(=O)c1c(NC(=O)c2cc(OC)c(OC)c(OC)c2)sc(C(=O)Nc2ccc(OC)cc2OC)c1C
    3, -5
C=CCn1c(SCC#N)nc2sc3c(c2c1=O)CCC3
    13, -1
Cc1nc(-n2nc(C3CC3)cc2NC(=O)c2ccccc2F)[nH]c(=O)c1C
    10, 10
COc1ccc(-c2cc(C(=O)N(CCc3ccccc3)Cc3ccccc3)n3nc(C(C)(C)C)cc3n2)cc1
    5, 1
CCN(CC)C1=NC(C(=O)OC)(C(F)(F)F)N=C(C)O1 (stereo unspecified)
    -1, 7
CCOC(=O)Cn1c(O)c(N=NC(=O)COc2ccc(C)cc2C)c2ccccc21
    10, 4
COc1ccc(N2CCN(c3cc(Cl)nc(SCC(=O)O)n3)CC2)cc1
    -16, -7
COc1cccc(C(=O)Nc2nnc(Cc3ccccc3F)s2)c1
    -16, -9
CN1CCN(Cc2nc3c(c(=O)n(C)c(=O)n3C)n2Cc2c(Cl)cccc2Cl)CC1
    26, 1
COc1cccc(C(=O)N2CCC(n3c(=O)oc4ccc(C(C)(C)C)cc43)CC2)c1
    1, -9
COc1ccccc1-n1nc(C(C)C)nc1Cc1cc(C)no1
    4, 5
Cc1ccc(N2C(=O)CSC2c2ccccn2)cc1F (stereo unspecified)
    -9, -5
N#Cc1ccc2c(c1)N(CCCN1CCC(O)CC1)c1ccccc1S2
    -9, 2
OC(c1ccccc1)c1ncc(-c2ccc(Oc3ccccc3)cc2)[nH]1 (stereo unspecified)
    -4, -2
Cc1c(Br)c(C(F)(F)F)nn1CC(=O)N1CCCCCC1
    -7, -2
N#CCCN1CCN(C(=O)c2ccc(-c3cc(-c4ccc(Cl)cc4)[nH]n3)cc2)CC1
    -18, -16
